Source: PubChem BioAssay
KCNQ2 enhance – potentiators of rat KCNQ2 potassium channel. O88943. actives 0.54% (n = 310,000). B-score at 10 µM. CHO-K1 KCNQ2, FluxOR thallium flux fluorescence; hits give high values;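 active = fluorescence ratio B-score at least 3 SD of library B-scores, with initial fluorescence B-score within 3 SD, cut at about 5.3 in these data; same plate scores as AID 2156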;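 also: B-score of peak minus minimum over baseline fluorescence ratio after K+ and Tl+ stimulus; positive B-score means potentiation of KCNQ2 with more thallium influx and brighter signal; only the inactives scoring about 0 or higher are listed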
Target sequence (O88943 whole entry, looked up): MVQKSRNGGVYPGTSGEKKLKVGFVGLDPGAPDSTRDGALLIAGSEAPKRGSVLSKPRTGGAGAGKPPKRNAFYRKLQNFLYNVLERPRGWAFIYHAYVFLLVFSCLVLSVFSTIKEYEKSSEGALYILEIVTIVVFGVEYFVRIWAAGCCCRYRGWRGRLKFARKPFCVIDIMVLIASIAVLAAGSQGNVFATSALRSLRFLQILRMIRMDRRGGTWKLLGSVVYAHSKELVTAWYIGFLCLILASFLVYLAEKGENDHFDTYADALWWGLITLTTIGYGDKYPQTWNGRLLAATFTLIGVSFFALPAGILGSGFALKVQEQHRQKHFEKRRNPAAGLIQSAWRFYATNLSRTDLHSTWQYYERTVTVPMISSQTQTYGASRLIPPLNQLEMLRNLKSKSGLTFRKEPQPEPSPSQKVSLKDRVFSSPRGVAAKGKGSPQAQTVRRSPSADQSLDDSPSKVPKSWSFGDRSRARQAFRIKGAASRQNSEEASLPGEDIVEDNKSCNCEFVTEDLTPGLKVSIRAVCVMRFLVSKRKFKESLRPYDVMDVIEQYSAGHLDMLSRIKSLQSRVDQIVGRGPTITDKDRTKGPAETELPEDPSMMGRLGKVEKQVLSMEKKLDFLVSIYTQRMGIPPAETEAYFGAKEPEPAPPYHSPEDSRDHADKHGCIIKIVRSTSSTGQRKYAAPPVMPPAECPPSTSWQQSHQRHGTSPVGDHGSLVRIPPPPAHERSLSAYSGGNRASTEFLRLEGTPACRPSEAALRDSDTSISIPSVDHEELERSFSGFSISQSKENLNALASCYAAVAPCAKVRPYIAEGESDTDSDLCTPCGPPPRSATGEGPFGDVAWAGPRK
KCNQ2 enhance baseline – recorded beside KCNQ2 enhance, whose call it bears; B-score; compound at 10 µM; measured here: initial fluorescence intensity artifact check;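 brightness before thallium and not channel activity; 0 = typical well and far values either way flag optical interference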
An asterisk follows results filed as active; & = joins results of further samples.

Value order: KCNQ2 enhance	KCNQ2 enhance baseline
Cc1cc(/C=C2\C(=O)NC(=O)N(c3ccccc3F)C2=O)c(C)n1-c1cc(C(=O)O)cc(C(=O)O)c1
  2.12	0.03
O=C(c1ccc(C(F)(F)F)cc1)C1CCCN(Cc2ccc(CO)o2)C1 (stereo not drawn)
  1.19	1.36
COc1ccc(CC(=O)Nc2ccc3c(C(F)(F)F)cc(=O)oc3c2)cc1OC
  1.63	-0.05
CN(C)C(=O)OCc1n(C)cc[n+]1C
  0.35	0.05
O=C(Cn1ncc2c3ccccc3n(Cc3cccc(Cl)c3)c2c1=O)N1CCC2(CC1)OCCO2
  13.2*	0.02*
NC(=O)Cn1cc(C(=O)c2ccccc2)c2ccccc21
  0.79	-0.83
CC1C(c2cccs2)=[N+]([O-])C(C)(C(=O)c2ccc(F)cc2)N1O (stereo not drawn)
  0.52	0.88
Oc1ccc(C(=C(Cl)Cl)c2ccc(O)cc2)cc1
  11.4*	-0.22*
O=c1[nH]c(=O)n(CC2CCCO2)c(O)c1/C=C1\C=Nc2ccccc21 (stereo not drawn)
  2.04&1.65	0&-1.55
CCOP(=O)(Cc1cc(C#N)oc1C)OCC
  0.03	0.01
CCOC(=O)c1ccc(N=C(CC)c2c(O)n(C)c(=O)n(C)c2=O)cc1
  1.69	1.37
O=S(=O)(F)c1ccc2nc(-c3cccc(Sc4ccccc4)c3)cc(Cl)c2c1
  0.62	-0.83
COc1cc(C(C)=O)ccc1OC(=O)N(C)c1ccccc1
  0.37	-3.79
C[N+]1(C)CCc2cc3c(cc2[C@H]1[C@@H]1OC(=O)c2c1ccc1c2OCO1)OCO3
  0.11&1.82	0.26&0.1
C#C[C@@]1(O)CCC2C3CCC4=C/C(=N/OCC(=O)NC(C(=O)O)C(C)O)CC[C@]4(C)C3CC[C@@]21C (stereo partly drawn)
  2.1	1.38
C=COCCn1c(C)c(C(=O)OCC)c2cc(O)ccc21
  1.69	0
CCOP(=O)(OCC)C(NC(=O)C(Cl)Cl)C(Cl)(Cl)Cl (stereo not drawn)
  0.4	-0.41
N=C1c2ccccc2CN1CC(=O)c1ccccc1
  0.11	0.26
CCCCn1c(O)c(C(C)=NCCCN(C)C)c(=O)[nH]c1=O
  0.12	-0.55
CC(C)N1CCN(Cc2cc3c(cc2Cl)OCO3)CC1CCO (stereo not drawn)
  0.1	-1.18
O=C1OCCC1NC1=NCCC1 (stereo not drawn)
  0.06	-0.47
CSc1ccc(C(=O)C2CCCN(Cc3cccnc3)C2)cc1 (stereo not drawn)
  0.12	0.23
CN1C2CCC1CC(=NO)C2
  0.09	-0.06
COc1ccc(-c2cc(=NCC(=O)O)c3ccccc3o2)cc1
  1.75	0
NC1=Nc2ccccc2Oc2ccccc21
  0.84	-0.66
Cc1ccc(N2C(=O)NC(=O)/C(=C\c3cc(C)n(-c4ccc(C(=O)O)cc4)c3C)C2=O)cc1
  1.16	1.04
O=C(Cn1cnc2sc3c(c2c1=O)CCCC3)NCCC(=O)N1CCC2(CC1)OCCO2
  0.7	-1.04
CCN(CC)c1ccc(CN(C)CCc2ccc(OC)c(OC)c2)cc1
  1.15	0.78
O=C1CCN(C(=O)CNC(=O)Cc2ccccc2)CC1
  1.17	-2.64
C[C@]12C=CC(=O)C=C1C=C[C@@H]1C2CC[C@]2(C)C(=O)CCC12 (stereo partly drawn)
  0.83	-0.22
C=CCn1c(O)c(/C(C)=N/NC(=S)Nc2ccccc2)c(=O)[nH]c1=O
  1.16	0.27
CC1CCCN(CC(=O)N2CCCc3ccccc32)C1 (stereo not drawn)
  0.84	-2
CCC(=O)N1N=C2C3CCN(CC3)C2C1c1ccccc1 (stereo not drawn)
  1.36	0
O=C(Nc1ccccc1OC(=O)N1CCCCC1)N1CCCCC1
  0.13	0.09
O=C(CN1C(=O)CCSc2ccccc21)N1CCC2(CC1)OCCO2
  0.74	3.11
O=C(C1CC(c2ccc(F)cc2)=NO1)N1CCC2(CC1)OCCO2 (stereo not drawn)
  0.77	-0.01
Cc1ccc(Cn2ccccc2=N)cc1
  1.16	0.28
CN(C)C1(CNC(=O)c2ccc(Cl)c(S(=O)(=O)NCc3ccco3)c2)CCCCC1
  0.77	0.24
CCN(CC)c1ccc(/C=C2\C(=O)NC(=O)N(CC3CCCO3)C2=O)cc1 (stereo not drawn)
  2.86	-0.67
CCc1nn(CC(=O)N2CCC3(CC2)OCCO3)c(=O)c2cc3ccccc3n12
  2.98	-0.8
CC12CN3C(O)C(C)(C1)CC(C)(C2)C3O (stereo not drawn)
  0.87	-0.9
CCOc1ccc2nc(N=Nc3c(O)[nH]c(=S)[nH]c3=O)sc2c1
  1.08	0.7
Cc1cc(/C=C2/C(=O)NC(=O)N(c3ccccc3)C2=O)c(C)n1-c1ccc(F)cc1
  0.1	0.27
Cc1cc(OCc2cc(C(=O)O)oc2C)c2c3c(c(=O)oc2c1)CCCC3
  1.82	0.1
O=c1c2ccc(Cl)cc2[nH]c(=S)n1-c1cccnc1
  0.13	-2.04
C=CCn1c(O)c(C(=O)CCCCCC)c(=O)[nH]c1=O
  0.62	2.22
O=C1CC(N2CCC(n3c(=O)[nH]c4ccccc43)CC2)C(=O)N1c1ccc(F)cc1 (stereo not drawn)
  0.01	-0.07
O=C1C(=O)c2ccccc2-c2ccccc21
  6.19*	0.14*
O=C(O)CNC1c2ccccc2CSc2ccccc21 (stereo not drawn)
  0.84	0.76
Cc1ccc(C)c(NP(=O)(Oc2ccccc2)Oc2ccccc2)c1
  0.73	-0.29
CCN(CC)C(=O)c1ccc(N(Cc2ccccc2)S(C)(=O)=O)cc1
  0.86	-0.6
CCC1(c2ccc(N)cc2)CCC(=O)NC1=O (stereo not drawn)
  0.38	-1.4
COC(=O)C1=C(c2cccc(OC)c2OC)C[C@@H]2CC[C@H]1N2C(=O)NCCO
  0.92	-0.16
C=CCN1C(=O)NC(=O)/C(=C\c2ccc(-c3ccccc3[N+](=O)[O-])o2)C1=O
  0.76	0.04
CCOP(=O)(OCC)c1ccc(OP(=O)(c2cccc([N+](=O)[O-])c2)c2cccc([N+](=O)[O-])c2)cc1
  2.97	0.98
Cc1ccc(CC2C(=O)N(C)C(=O)N(C)C2=O)s1
  0.18	0.26
CN1C(=O)CN=C(c2ccc(Cl)cc2)c2cc(Cl)ccc21
  0.56	-3.42
COc1ccc(C(=O)CC2C(=O)N(C)C(=O)N(C)C2=O)cc1
  1.13	-3.31
Cc1nn(Cc2ccccc2Cl)c(C)c1C(=O)OCC(=O)NC1CCCC(C)C1C (stereo not drawn)
  1.41	-1.52
Cc1ccsc1C(=O)C1CCCN(Cc2cn(C)nc2C)C1 (stereo not drawn)
  0.68	-0.57

Later entries.
Value order: KCNQ2 enhance	KCNQ2 enhance baseline
CC1CCC2[C@@H](C)C(=O)OC3O[C@]4(C)CCC1C32OO4 (stereo partly drawn)
  0.81	0.11
O=c1c2ccccc2nc(-c2ccc(-c3ccccc3)cc2)n1-c1ccncc1
  0.25	-0.26
O=C1NC(=S)NC(=O)C1C/C=C/c1ccccc1
  0.95	0.43
CN(C)P(=NC(=S)c1cccn1C)(N(C)C)N(C)C
  0.28	-0.52
CN1CCC2(CC1)CC(NC=O)c1ccccc1O2 (stereo not drawn)
  1.88	1.25
COc1ccc2c(C)c(CC(=O)N3C[C@H]4C[C@@H](C3)c3cccc(=O)n3C4)c(=O)oc2c1C
  0.81	0.76
CCc1cc2c(N3CCN(C)CC3)ncnc2s1
  0.05	0.06
COc1cccc(CCNCc2c(F)cccc2F)c1
  0.86	0.19
COc1cc2[nH]c(=S)n(-c3ccccc3)c(=O)c2cc1OC
  0.44	-0.25
CCOP(=O)(Cc1ccccc1)OCC
  1.22	-0.74
COc1ccc(OC)c(N2C(=O)NC(=O)/C(=C/c3ccc([N+](=O)[O-])s3)C2=O)c1
  1.25	-1.13
c1cncc(CNC2=NCCC2)c1
  0.01	-0.22
O=c1[nH]c(O)c(C=Nc2ccc(Cl)c(C(F)(F)F)c2)c(=O)[nH]1
  0.23	-0.08
O=c1c2ccccc2nc(/C=C/c2ccc([N+](=O)[O-])o2)n1-c1ccc(O)cc1
  1.32	1.33
CN1CCN(C(=O)COc2ccc(-c3nc4ccccc4s3)cc2)CC1
  0.31	0.04
CN1C(=O)N(C)C(=O)C(CCc2ccncc2)(Cc2ccc3c(c2)OCO3)C1=O
  0.39	-0.02
COc1ccccc1CCNC1C2CC3CC(C2)CC1C3 (stereo not drawn)
  0.46	-0.4
CN(C)C1C(=O)C(C(N)=O)=C(O)C2(O)C(=O)C3=C(O)c4c(O)cccc4C(C)(O)C3CC12 (stereo not drawn)
  2.44	-0.55
CC(NC(=O)Oc1ccccc1)C(c1cccs1)N1CCOCC1 (stereo not drawn)
  1.72	0.26
CC[n+]1c(SC)ccc2cc(OC)ccc21
  0.43	0.08
COc1cc(/C=N/n2cnnc2)ccc1OC(=O)N(C)C
  0.14	-2.28
O=C(CCN1CCOCC1)NCC(=O)Nc1ccc(Br)cc1C(=O)c1ccccc1
  0.81	-1.01
C=CCN=C(SCC(=O)c1ccc(Cl)cc1)c1c(O)n(C)c(=O)n(C)c1=O
  0.36	-0.19
O=C1CN=C(c2cc([N+](=O)[O-])ccc2Cl)c2cc([N+](=O)[O-])ccc2N1
  1	-0.1
CSc1ccc(C(=O)C2CCCN(C)C2)cc1 (stereo not drawn)
  0.29	-0.43
Cc1ccc(-c2nc(CS(=O)CC(=O)N3CCC4(CC3)OCCO4)c(C)o2)cc1 (stereo not drawn)
  0.28	0.66
Cc1nn(Cc2ccccc2)c(C)c1C=C1C(=O)NC(=O)NC1=O
  1.73	-0.23
Nc1ccc(S(=O)(=O)N2CC3CC(C2)c2cccc(=O)n2C3)cc1 (stereo not drawn)
  0.01	-2.26
C[C@]12N[C@H](Cc3ccccc31)c1ccccc12
  0.23	0.56
Cc1ccc(N2C(=O)NC(=O)/C(=C\c3ccsc3)C2=O)cc1C
  1.9	-1.9
COc1ccc(NC(=O)N2CCC3(CC2)OCCO3)c(OC)c1
  0.41	-0.59
CCN(CC)CCOC(=O)c1cc2cc(COC)ccc2o1
  0.01	0.63
CNCCc1ccccc1
  0.46	1.51
COc1ccc(NC(=O)C2C3CCC(O3)C2C(=O)O)c(OC)c1 (stereo not drawn)
  1	0.02
COc1cccc(CC(=O)N(C)C2CCCN(Cc3ccccc3F)C2)c1 (stereo not drawn)
  0.18	-0.35
CSc1ncc(Cl)c(C(=O)O)n1
  1.03	-0.17
CCOP(=O)(OCC)/C(C#N)=C/c1ccoc1
  0.02	2.04
CCOP(=O)(OCC)C(NC(=O)NC)C(N)=O (stereo not drawn)
  0.71	0.75
CCCCCCC(N)CC(=O)O (stereo not drawn)
  0.82	0.54
c1ccc2c(c1)CNc1ccccc1O2
  0.08	1.06
O=C(C(=O)N1CCC2(CC1)OCCO2)c1c[nH]c2ccccc12
  1.87	-1.5
Cc1cc(/C=C2/C(=O)NC(=O)N(C)C2=O)c(C)n1-c1ccccc1
  0.53	-0.6
FC(F)(F)c1cccc(N2CCNCC2)c1
  0.7	1.94
CN1C(=O)C(=Cc2ccccc2OS(=O)(=O)c2ccccc2)C(=O)N(C)C1=O
  0.86	-2.37
Cc1ccc(C2=CCNCC2)cc1
  1.26	-1.36
Cc1c(C)c2ccc(OCC(=O)N3C[C@H]4C[C@@H](C3)c3cccc(=O)n3C4)cc2oc1=O
  0.05	-0.01
c1cncc(CNC2CCCCC2)c1
  1.03	-0.77
O=c1c2ccccc2[nH]c(=S)n1-c1cccnc1
  0.75	1.8
CCOC(=O)c1[nH]c(C)c(C(=O)N2CCC3(CC2)OCCO3)c1C
  0.15	0.38
C#CCOCOCC#CCN(CC)CC
  0.64	-2.4
Cc1ccc(NS(=O)(=O)c2ccc(OCC(=O)N3CCN(C)CC3)cc2)cc1
  0.78	0.15
CCN(CC)c1ccc(N=Cc2c(O)n(-c3ccccc3)c(=O)[nH]c2=O)cc1
  0.35	-0.1
Cc1cc(OCC(=O)N[C@@H](Cc2ccccc2)C(=O)O)c2c3c(c(=O)oc2c1)CCC3
  0.25	-0.44
CCOC(=O)N(c1ccccc1)P1(=S)OCC(C)O1 (stereo not drawn)
  0.96	0
CC(=NCC1CCCO1)c1c(O)n(C2CCCCC2)c(=O)[nH]c1=O (stereo not drawn)
  0.53	0.06
CCCCCn1c(=O)c(C(=O)Nc2ccccc2N)c(O)c2ccccc21
  1.65	-0.87
CC(C)N1CCN(Cc2ccc3c(c2)OCCO3)CC1CCO (stereo not drawn)
  0.57	0.53

An excerpt (hit frequency here may not be typical).
